Compound activity from PubChem.
Anaer choline gr: growth inhibitors of anaerobic choline-fed gram-negatives, minimal medium, absorbance | Gram-negative bacterium anaerobic choline minimal medium; active compounds read low; many inactives read as strong as hits in the columns shown | calls only | 55,000 compounds, 0.2% hits;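 active = growth z-score on choline under -2 at 7 or 20 h with little or no fall on glycerol, limits in tiers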;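 note: stock transfer was 300 nL into about 50 µL; the organism is E. coli; final concentration not given here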
Anaer choline gr early: recorded beside Anaer choline gr, whose call it bears; z-score; measured here: choline growth z-score, timepoint 1;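 score of optical density at 7 h as mean of two plates; lower means less growth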
* marks the source's active call; other numbers are inactive results; i = inactive; & = joins results of further samples. Not all compounds are listed; the hit share may differ from the screen's.

smiles,Anaer choline gr,Anaer choline gr early
Cc1cc(C)cc(OCC(=O)Nc2ccc3c(c2)NC(=O)CO3)c1,i,0.89
CC(=O)O[C@H]1C[C@@]2(C)[C@@H](C[C@@H](O)[C@H]3[C@@]4(C)CC[C@@H](O)[C@@H](C)C4CC[C@@]32C)/C1=C(\CCC=C(C)C)C(=O)O (some centres not stated),i,-1
Cn1c(=O)c2nc(S(=O)(=O)CCC(=O)Nc3ccc(Cl)cc3)n(C)c2n(C)c1=O,i,2.4
Cc1ccc(NC(=O)c2csc3c2CCCC3)c(C)c1,i,0.25
CC(C)NC[C@H](O)COc1cccc2[nH]ccc12,i,0.43&0.72
Cc1nn(-c2ccc3nncn3n2)c(C)c1CCC(=O)Nc1ccc(F)c(Cl)c1,i,0.62
CCC1c2ccc(C)n2CCN1C(=O)Nc1ccc(F)cc1 (configuration not stated),i,-2.7
CCN(CC)c1cc(C)nc(Nc2ccc(NC(=O)C3CCCO3)cc2)n1 (configuration not stated),i,0.34
Cc1nnc(N2CCC(C(=O)NCc3ccccn3)CC2)c2nn(-c3ccccc3)c(C)c12,i,-1.4
Cc1ccc(NC(=O)c2nn(C)c(C(F)(F)F)c2Cl)c(Br)c1,i,-1.5
CC1=C(C(=O)Nc2cccnc2)C(c2ccccn2)n2nc(SCc3ccccc3F)nc2N1 (configuration not stated),i,0.96
COCCNC(=O)CCc1nc(-c2cc3ccccc3[nH]c2=O)no1,i,0.55
COc1cccc(C(=O)N(Cc2cccnc2)c2nc3c(Cl)cccc3s2)c1,i,0.85
CNC(=O)CN1c2ccccc2NC2=C(C(=O)CC(C)(C)C2)C1c1ccc(F)cc1 (configuration not stated),i,0.24
COc1ccc(NC(=O)Cn2c(=O)n(CCCCC(=O)NC(C)C)c(=O)c3ccccc32)cc1OC,i,0.67

Six compounds from above, arranged by the number in Anaer choline gr early, high to low:
mol | Anaer choline gr early
Cn1c(=O)c2nc(S(=O)(=O)CCC(=O)Nc3ccc(Cl)cc3)n(C)c2n(C)c1=O | 2.4
COc1ccc(NC(=O)Cn2c(=O)n(CCCCC(=O)NC(C)C)c(=O)c3ccccc32)cc1OC | 0.67
COCCNC(=O)CCc1nc(-c2cc3ccccc3[nH]c2=O)no1 | 0.55
Cc1ccc(NC(=O)c2csc3c2CCCC3)c(C)c1 | 0.25
CC(=O)O[C@H]1C[C@@]2(C)[C@@H](C[C@@H](O)[C@H]3[C@@]4(C)CC[C@@H](O)[C@@H](C)C4CC[C@@]32C)/C1=C(\CCC=C(C)C)C(=O)O (some centres not stated) | -1
Cc1nnc(N2CCC(C(=O)NCc3ccccn3)CC2)c2nn(-c3ccccc3)c(C)c12 | -1.4

Back to the main list with the 3 entries that preceded the break.
smiles,Anaer choline gr,Anaer choline gr early
COc1cccc(C(=O)N(Cc2cccnc2)c2nc3c(Cl)cccc3s2)c1,i,0.85
CNC(=O)CN1c2ccccc2NC2=C(C(=O)CC(C)(C)C2)C1c1ccc(F)cc1 (configuration not stated),i,0.24
COc1ccc(NC(=O)Cn2c(=O)n(CCCCC(=O)NC(C)C)c(=O)c3ccccc32)cc1OC,i,0.67
Cc1nn(C)c(C)c1S(=O)(=O)N1CCCC(c2nnc(C(=O)Nc3ccccc3)s2)C1 (configuration not stated),i,0.05
Cc1ccc2[nH]cc(S(=O)(=O)c3ccc(C(C)C)cc3)c(=O)c2c1,i,0.43
COc1ccc(-c2nc(-c3ccc4c(c3)[nH]c(=O)n4C)no2)c(OC)c1,i,-0.32
Cc1ccc(CN2CC(=O)N(c3ccc(C(C)(C)C)cc3)[C@@H]3CS(=O)(=O)C[C@@H]32)cc1,i,-0.43
CN1C(=O)c2cc(NC(=O)c3ccccc3Br)ccc2N2CCN=C12,i,-0.16
Cn1ccc(C(=O)N2CCCC2c2cccc(F)c2)n1 (configuration not stated),i,1.2
Cc1nn(-c2ccc(Cl)cc2)c2nc(C(C)(C)C)cc(C(F)(F)F)c12,i,-0.78
CCC(C)NC(=O)NC1CCN(C2=NS(=O)(=O)C(c3ccccc3)=C2C)CC1 (configuration not stated),i,-1.3
Cc1ccc(-c2cncc(C(=O)NC(C)CCc3ccccc3)c2)cc1 (configuration not stated),i,0.93
O=C(Nc1ccc(C(=O)N2CCC(C(=O)NCC3CCCO3)CC2)cc1)c1ccccc1Cl (configuration not stated),i,-0.01
Cc1cc2nc(COc3ccccc3NC(=O)COc3cccc(C)c3C)cc(=O)n2o1,i,0.02
CCn1cnc2cc(-c3noc(CNC(=O)Cc4ccc(Cl)cc4)n3)ccc21,i,0.52
CC(C)NC(=O)CCn1c(=O)c2cc(Cl)ccc2n2c(=O)n(CC(N)=O)nc12,i,-1.2
CC(C(=O)Nc1cccc(CCc2nc3ccccc3n2C)c1)N1C(=O)COc2ccccc21 (configuration not stated),i,0.05
O=C(NCc1ccncc1)C12CC3CC(C1)CC(c1ccc(Cl)cc1)(C3)C2,i,-0.79
COc1ccc(C2C3=C(CC(C)(C)CC3=O)Nc3ccccc3N2C(=O)NC2CCCC2)cc1 (configuration not stated),i,-0.93
CCOc1c(C)cnc2c1c(=O)n(CC(=O)N1CCC(C)CC1)c(=O)n2C,i,-2
CCOc1ccc(C2C3=C(CC(c4ccc(Cl)cc4)CC3=O)Nc3onc(C)c32)cc1 (configuration not stated),i,0.83
NC(Sc1nc(=O)n(C2CCCC2)c2c1CCC2)c1cccc2ccccc12 (configuration not stated),i,2
CCC(=O)Nc1nc2ccc(NC(=O)CCn3c(C)nc4ccccc43)cc2s1,i,-0.86
CC(C)CCn1c(CCCC(=O)Nc2nccs2)nc2cccnc21,i,0.93
CC1(C)CC(=O)C2=C(C1)Nc1ccccc1N(CC(=O)NC1CCCC1)C2c1ccccc1 (configuration not stated),i,-0.13
Cc1nc2sccn2c(=O)c1NC(=O)c1ccc(F)cc1,i,-0.78
Cc1cc(N2CCC(C)CC2)nc2ccc(NC(=O)CCC(=O)NCCC(C)C)cc12,i,-1.2
CN(C)c1ncc(C(=O)O)cc1NS(=O)(=O)c1cccc(F)c1,i,-1.7
CCOc1ccccc1-c1noc(CCCn2c(=O)[nH]c3cc4c(cc3c2=O)OCO4)n1,i,-1.5
CCOc1ccc(NC(=O)CSc2ccc(S(=O)(=O)c3ccccc3)nn2)cc1,i,1.8
Cc1ccc(F)c(NS(=O)(=O)c2cc(-c3nc(C(C)(C)C)cs3)cs2)c1,i,0.58
Cc1ccc2c(CC(=O)Nc3c(C(=O)c4ccc(Cl)cc4)oc4ccccc34)coc2c1,i,-0.41
Nc1ccc2cc3ccc(N)cc3nc2c1,i,-1.5
CCCc1cc(C2CCCN2S(=O)(=O)c2ccc3c(c2)n(C)c(=O)c(=O)n3C)no1 (configuration not stated),i,0
COc1cc(C=O)c([N+](=O)[O-])cc1OC,i,-0.88
CN(C)S(=O)(=O)c1ccc(-c2noc(C(=O)NCc3ccccn3)n2)cc1,i,-0.98
CN(C)C(=O)CN1CCN(c2ccc(NC(=O)C3CC3)c(C(=O)O)c2)CC1,i,0.11
O=C(Cn1c(=O)c(CCC(=O)NC2CCCC2)nc2ccccc21)Nc1ccc(F)c(Cl)c1,i,0.01
CCOc1nc2c(c(C)nn2-c2ccc(C)cc2)c(C)c1CCC(=O)NC1CCCCC1,i,-0.39
COC(=O)CNC(=O)N1CC2CCCN2c2ccccc21 (configuration not stated),i,0.74
O=C(O)CCC/C=C\C[C@H]1C(=O)C=C[C@@H]1CC[C@@H](O)CCc1ccccc1,i,0.71
O=S(=O)(c1cccc(-c2nnc(-c3ccc(F)cc3)o2)c1)N1CCOCC1,i,0.48
COc1ccc(N2CCN(CCCNC(=O)c3cc(C(F)(F)F)n(C)n3)CC2)cc1,i,-0.9
COc1cccc(OCC(=O)NC2CC(=O)N(c3ccc4c(c3)OCCO4)C2)c1 (configuration not stated),i,-1.1
O=C(NC1CCCCC1)N1CCC(c2nc(-c3ccccc3Cl)no2)CC1,i,-0.27
CC(=O)N1CCCc2cc(S(=O)(=O)NCCCN3CCc4ccccc4C3)ccc21,i,-0.4
Cc1nc(-c2cccc(NC(=O)C3CCN(c4ccccc4)C3=O)c2)no1 (configuration not stated),i,2.3
CCOc1ccccc1-c1nn2c(-c3cccnc3)nnc2s1,i,-1
Cc1ccc(-c2cc(N3CCN(C(=O)NCC(C)C)CC3)ncn2)cc1,i,0.06
CCN1C(=O)CCc2cc(NS(=O)(=O)c3ccc(C(C)C)cc3)ccc21,i,0.27
Cc1ccc(C(=O)CSc2nc3cc(C(=O)NC(C)C)ccc3c(=O)n2CC2CCCO2)c(C)c1 (configuration not stated),i,-0.66
CCCn1c(=O)c(-c2ccc(C(=O)NCCN3CCCCC3C)cc2)nc2ccccc21 (configuration not stated),i,-0.47
CC(C)n1ccnc(NC2CC2)c1=O,i,-0.66
Cc1sc(-c2nc(C(C)C)cs2)cc1S(=O)(=O)N1CCN(c2cccc(Cl)c2)CC1,i,1.6
CC(C)NC(=O)CCCCn1c(=O)c2ccccc2n(CC(=O)NCc2ccccc2)c1=O,i,0.97
CCOC(=O)Cn1c(=O)n(-c2ccc(F)cc2)c2nc(C)nc(C(N)=O)c21,i,1.3
O=C(NCc1ccccc1)C1CCN(c2nccnc2Sc2ccccc2)CC1,i,1.6
Cc1oc(C2CCN(C(=O)c3ccsc3)CC2)nc1C(=O)N1CCCCC1,i,-0.26
Cc1ccc(C(=O)OC2=C(C(=O)c3ccccc3)N(C)S(=O)(=O)c3ccccc32)cc1,i,-0.43
Cc1oc(-c2cccc(Cl)c2)nc1CSc1nc2ccccc2n2c(C)nnc12,i,-0.19
O=C1CC(C(=O)N2CCc3ccccc32)CN1c1cccc(-c2noc(C3CCC3)n2)c1 (configuration not stated),i,1.2
O=C(NC1CC1)c1cccn2c(-c3ccccc3F)nnc12,i,-0.4
Cc1sc2ncc(C(=O)NC(C)C)c(=O)n2c1C,i,0.99

New compounds follow.
smiles,Anaer choline gr,Anaer choline gr early
COc1ccc(-c2cc3c(=O)n(CC(=O)Nc4ccc(C)c(Cl)c4)ncn3n2)cc1,i,0.48
O=C(COc1ccc(Cl)cc1)Nc1ccc(N2CCCS2(=O)=O)cc1,i,3.6
Cc1nnc(-c2ccc(S(=O)(=O)N3CCC4(CC3)OCCO4)s2)o1,i,0.25
Cc1nnc(N2CCCC(C(=O)NCC3CCCO3)C2)c2nn(-c3ccc(Cl)cc3)c(C)c12 (configuration not stated),i,-0.43
Cc1ccc(Cl)cc1NS(=O)(=O)c1ccc2c(c1)c(=O)n(CC(=O)N1CCCC1)c(=O)n2C,i,2
CN(CC1(C)CCOCC1)S(=O)(=O)c1ccc(F)c(F)c1,i,0.56
CC(=O)N1CCCN(C(=O)C2CCC2)CC1,i,0.16
Cc1ccc2c(c1)C=C(C(=O)Nc1ccc(Br)cc1)C=CO2,i,0.49
C=C(C)[C@@H]1CC[C@]2(C(=O)O)CC[C@]3(C)[C@H](CC[C@@H]4[C@@]5(C)CC[C@H](O)C(C)(C)[C@@H]5CC[C@]43C)[C@@H]12,i,-0.46
CC(C)CCNC(=O)CCCCn1c(=O)c2ccccc2n(CC(=O)Nc2cccc(F)c2)c1=O,i,0.82
O=C(Cn1c(=O)nc(-c2ccccc2)c2cc(Cl)ccc21)Nc1ccc2c(c1)OCO2,i,-0.25
COC(=O)c1[nH]c(C)c(CN(C(=O)C2CCCCC2)C2CCCC2)c1C,i,-0.57
CCN(CC)CCCNC(=O)Cn1cnc2oc(C)c(C)c2c1=O,i,-0.51
Cc1ccc(-c2nccc(Oc3ccc(C(=O)NC4CCCCC4)cc3)n2)cc1,i,-0.44
CN1CCN(c2ccc(NS(=O)(=O)c3ccc(F)cc3)cc2C(=O)O)CC1,i,0.64

Quoted at random: two compounds from above.
smiles,Anaer choline gr,Anaer choline gr early
Cc1nnc(N2CCCC(C(=O)NCC3CCCO3)C2)c2nn(-c3ccc(Cl)cc3)c(C)c12 (configuration not stated),i,-0.43
Cc1ccc(-c2nccc(Oc3ccc(C(=O)NC4CCCCC4)cc3)n2)cc1,i,-0.44

New compounds follow.
smiles,Anaer choline gr,Anaer choline gr early
CCOCC(=O)Nc1c(C)nc2sccn2c1=O,i,0.05
CCCC(=O)OCc1cnc(C)c2oc(=O)c(C(=O)Nc3ccc(OCc4ccccc4)cc3)cc12,i,0.27
O=C(c1cc(-c2cccnc2)n(-c2ccc(F)cc2)n1)N1CCN(C2CCCCC2)CC1,i,-0.94
CS(=O)(=O)c1ccc(C(O)C(CF)NC(=O)C(Cl)Cl)cc1 (configuration not stated),i,-2.6
CC1(C)CC(=O)c2cc(C(=O)Nc3ccc(Br)cc3)c(=O)[nH]c2C1,i,-0.76
Cc1[nH]c(=O)[nH]c(=O)c1S(=O)(=O)N1CCN(C)CC1,i,0.79
COc1ccc(CC(=O)Nc2cc3c(cc2S(=O)(=O)C2CCCCC2)n(C)c(=O)c(=O)n3C)cc1,i,1.4
CCC(=O)Nc1ccc2nc(SCCOc3ccccc3)sc2c1,i,0.44
COc1ccc(CCC(=O)Nc2ccc3c(c2)N(S(=O)(=O)c2ccccc2)CCC3)cc1,i,2
Cc1ccc(-n2cnnn2)c(Br)c1,i,-2.3
c1cc2c(cc1-c1nnc(C3CCC3)o1)OCO2,i,-2.4
Cc1csc(-c2csc(S(=O)(=O)Nc3ccc(C(C)C)cc3)c2)n1,i,0.54
O=C(CCC1CCCCC1)Nc1nnc2n1CCCS2,i,-0.31
Cc1cccc(Cn2c(SCC(O)CO)nc3c2c(=O)[nH]c(=O)n3C)c1 (configuration not stated),i,0.34
COc1cccc(-c2nc(C)c(-c3ccc(SCc4ccccc4)nn3)s2)c1,i,1.5
CCCCNc1ncc(C(=O)OC)c2ccccc12,i,-0.67
COCCNC(=O)CN1C(=O)CSc2ccc(C(=O)N3CCCC3)cc21,i,0.15
CCC(C(=O)Nc1ccc(F)cc1F)n1c(C(=O)OC)cc2ccsc21 (configuration not stated),i,0.19
